Bioassay records as filed in PubChem BioAssay.
FGF22 binding: shifts melting point of recombinant human FGF22; recombinant FGF22 thermal shift, SYPRO orange fluorescence; percent of sucrose octasulfate shift, DMSO zero; calls only at 9.99 µM; hit rate 1.5% among 340,000; AID 651658;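 active = melting point raised past a set limit in the mean and every replicate; three in four hits are not shown here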
Target sequence (Q9HCT0 whole entry, looked up): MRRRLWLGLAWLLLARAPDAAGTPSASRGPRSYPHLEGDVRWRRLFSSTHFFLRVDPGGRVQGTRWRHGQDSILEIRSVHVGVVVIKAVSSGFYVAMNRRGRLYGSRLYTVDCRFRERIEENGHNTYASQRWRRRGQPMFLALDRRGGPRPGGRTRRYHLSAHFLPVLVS
ALR H2O2 inh: human ALR oxidase inhibition via reduced H2O2. purified ALR, DTT oxidation, H2O2 HRP-luminol luminescence. P55789. hit rate 3.8% among 290,000. inhibition, % (concentration not given with the values);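 active = mean and each replicate at 75% or more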;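 note: stock transfer was 7.5 nL into about 7.5 µL; 0% = neutral wells and 100% = wells with inactivated enzyme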
Target sequence (P55789 whole entry, looked up): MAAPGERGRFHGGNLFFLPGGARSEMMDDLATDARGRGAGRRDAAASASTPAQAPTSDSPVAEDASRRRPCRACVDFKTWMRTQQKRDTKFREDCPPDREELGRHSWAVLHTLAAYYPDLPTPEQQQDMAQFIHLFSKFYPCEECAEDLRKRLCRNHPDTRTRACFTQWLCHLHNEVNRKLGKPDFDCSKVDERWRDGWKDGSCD
Ecoli rRNA inh: inhibits bacterial ribosomal RNA function over humanized ribosomes | E. coli WT GFP vs humanized-ribosome RFP mutants, fluorescence, 24 h; active compounds read low; DMSO median 0, no signal -100 | GFP signal change (wild-type ribosome), % (test concentration not listed) | hit rate 1.6% among 350,000 | AID 720706;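 active = significant combined selectivity score with lowered wild-type GFP, culture density cut under 30%, mutant RFP and density less affected; inactive = any of these conditions unmet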; note: one replicate is shown; some compounds called inactive have numbers as strong as hits
HNF4A DNA FP: change in binding of human HNF4 alpha to DNA. P41235. HNF4a-FITC DNA binding, fluorescence polarization, 1 h. activity change, % at 10 µM. hit rate 0.3% among 360,000; in the data active = activity change above about 30%, passing the limit was not always enough;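 note: controls were the assay level and a saturating level of protein; the project sought stronger binding though the title names inhibitors; some compounds called inactive have numbers as strong as hits; positive values seem to mean higher polarization but the record does not say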
E coli growth: inhibitors of Escherichia coli growth; OD600, 23 h; active compounds read low; OD600 absorbance (no concentration beside the values); hit rate 0.21% among 330,000; AID 1053175;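 active = OD600 absorbance below the run mean of sample wells minus 3.6 SD, in any replicate, cut at about 0.56 in these data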;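 note: stock transfer was 300 nL into about 60 µL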
MLL AF4-AF9 inh: inhibitors of human MLL-AF4/AF9 interaction. AlphaScreen, biotin-AF4 peptide binding to FLAG-AF9. hit rate 0.47% among 350,000. AID 651704. inhibition, % at 10 µM;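 active = every replicate reaching a set inhibition limit, whatever the replicate mean, cut at about 25% in these data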;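 note: 0% = plate neutral control median and 100% = total signal loss; the record names both 10 and 1 µM as test concentration; the first replicate is given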
Target sequence (P42568 whole entry, looked up): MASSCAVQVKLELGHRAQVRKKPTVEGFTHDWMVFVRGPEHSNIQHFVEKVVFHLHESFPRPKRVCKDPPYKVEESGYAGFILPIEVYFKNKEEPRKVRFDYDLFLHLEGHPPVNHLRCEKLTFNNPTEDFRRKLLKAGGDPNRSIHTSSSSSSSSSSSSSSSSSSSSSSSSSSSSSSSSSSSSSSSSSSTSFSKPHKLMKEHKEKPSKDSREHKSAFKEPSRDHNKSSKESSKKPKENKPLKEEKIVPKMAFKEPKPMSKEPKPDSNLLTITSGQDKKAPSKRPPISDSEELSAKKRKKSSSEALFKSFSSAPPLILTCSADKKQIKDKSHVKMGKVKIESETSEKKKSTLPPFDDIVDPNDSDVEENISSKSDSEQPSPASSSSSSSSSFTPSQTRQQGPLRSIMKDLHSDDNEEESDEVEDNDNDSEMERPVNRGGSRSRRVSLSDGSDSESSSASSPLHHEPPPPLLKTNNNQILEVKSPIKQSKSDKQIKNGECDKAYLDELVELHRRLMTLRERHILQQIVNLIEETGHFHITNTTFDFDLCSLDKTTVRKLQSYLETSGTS
Vif A3G: inhibitors of Vif binding to APOBEC3G peptide, primary screen, biochemical, TR-FRET, GST-Vif 1-94, biotin-A3G peptide, dose response retest (AID 1117319). TR-FRET GST-Vif / biotin-A3G peptide binding; higher % means a stronger effect; test concentration not given here; strong numbers were not always called active. hit rate 0.57% among 260,000. inhibition, %, or IC50 in µM where a hit was titrated;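 active = above the screen mean plus three standard deviations and confirmed in dose response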;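 note: Vif residues 1-94 fused to GST binding biotinylated APOBEC3G peptide 110-148; 0% = full assay without inhibitor and 100% = GST in place of GST-Vif; retest series ran down from 100 µM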
Ecoli rRNA inh OD600: also measured in Ecoli rRNA inh; calls as there; OD600 change, %; measured here: OD600 growth;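 optical density of the mix in the first replicate; 0 = DMSO median and -100 = no signal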
Ecoli rRNA inh RFP: second read-out of Ecoli rRNA inh, no call of its own (marks repeat the call); RFP signal change, %; measured here: RFP humanized mutant strains;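 first replicate; 0 = DMSO median and -100 = no signal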
* marks the source's active call; other numbers are inactive results; i = inactive; / = no result given; + = active, no number.

FGF22 binding	ALR H2O2 inh	Ecoli rRNA inh	Ecoli rRNA inh OD600	Ecoli rRNA inh RFP	HNF4A DNA FP	E coli growth	MLL AF4-AF9 inh	Vif A3G	molecule
i	/	3	0	-2.7	-1.0	0.66	1.2	/	Cn1cc(Cl)c(C(=O)OCC(=O)c2ccccc2)n1
i	/	2	-6	4.4	/	/	10	/	CC(C)NC(=O)Nc1ccc2c(c1)C(=O)N([C@H](C)CO)C[C@@H](C)[C@H](CN(C)Cc1ccc(Cl)c(Cl)c1)OCCCC[C@@H](C)O2
i	/	11	16	0.3	/	/	1.6	/	C[C@@H]1CN([C@@H](C)CO)S(=O)(=O)c2ccc(C#Cc3cccnc3)cc2O[C@@H]1CN(C)C
i	2	0	0	-2.1	3.6	0.65	0.4	/	Cc1ccc(S(=O)(=O)NCC(=O)N(CC(=O)NCC2CCCO2)Cc2ccccc2Cl)cc1 (centres undefined)
i	1	6	-2	4.6	-1.5	0.7	6.9	/	CCc1ccc(OCC2NCCc3cc(OC)c(OC)cc32)cc1 (centres undefined)
/	-5	/	/	/	3.1	0.7	/	0%	CCc1ccc(-c2csc3ncn(CC(=O)N4CCOCC4)c(=O)c23)cc1
i	0	16	19	4.6	-0.8	0.71	0.5	-6%	O=C(CNC(=O)c1ccc(Br)o1)NCC1CCCO1 (centres undefined)
i	-2	-8	-2	-0.6	2.5	0.71	6.2	/	Cc1cccc(-n2c(SCC(=O)N3CC(=O)Nc4ccccc43)nc3ccccc3c2=O)c1C
i	/	2	4	1.5	/	/	-0.7	/	COc1ccc(NC(=O)Nc2ccc3c(c2)CC(=O)N([C@H](C)CO)C[C@@H](C)[C@H](CN(C)Cc2ccc(Oc4ccccc4)cc2)O3)cc1
i	1	-5	-11	-2.1	2.1	0.68	7.5	24%	COc1ccc(N(C(=O)c2cccc([N+](=O)[O-])c2)S(=O)(=O)c2cccs2)cc1
i	4	-5	-5	0.2	-2.0	0.66	-3.6	-15%	CN(C(=O)COC(=O)CNC(=O)c1sc2ccccc2c1Cl)C1CCS(=O)(=O)C1 (centres undefined)
/	-2	/	/	/	1.6	0.71	/	-2%	COc1ccccc1-n1cnc2cc(C(=O)NCC3CCCO3)ccc21 (centres undefined)
i	4	-17	-21	2.6	-0.4	0.71	-0.8	-1%	CCOc1ccc(S(=O)(=O)N2CCCCC2)cc1NC(=O)CN1C(=O)NC(CC)(c2ccccc2)C1=O (centres undefined)
i	1	/	/	/	-3.9	0.68	0.4	-7%	CC1=Nc2cc(C(=O)O)ccc2Sc2ccc(C)cc21
i	/	6	4	3.2	/	/	1.1	/	CC(=O)N1CCCCN2[C@H](C1)[C@H](c1ccc(-c3ccccc3)cc1)[C@@H]2CO
i	5	-1	6	-1.2	5.4	0.72	8.5	14%	COc1ccc(NC(=O)CSc2nnc(Cc3cccn3C)n2-c2ccc(OC)cc2)cc1
i	/	0	-5	1.9	/	/	0.4	/	C[C@H](CO)N1C[C@H](C)[C@H](CN(C)S(=O)(=O)c2cccs2)Oc2ccc(NC(=O)NC3CCCCC3)cc2C1=O
i	/	2	3	-0.1	/	/	5.5	/	C[C@@H]1CN([C@H](C)CO)C(=O)c2cc(C#Cc3ccccc3)cnc2O[C@@H]1CN(C)C(=O)CCN1CCCCC1
/	-13	/	/	/	3.4	/	/	28%	Cc1cc(/C=N/n2cnnc2)c(C)n1-c1ccc(OCc2ccc(Cl)cc2)cc1
i	/	1	-6	1.2	/	/	-4.1	/	Cc1ccc(S(=O)(=O)Nc2ccc3c(c2)C(=O)N([C@@H](C)CO)C[C@@H](C)[C@H](CN(C)S(=O)(=O)c2cccs2)OCCCC[C@H](C)O3)cc1
i	-25	1	-9	7.1	0.6	0.69	1.7	/	CCCCCCN(CCCCCC)C(=O)Cc1c(-c2ccc(F)cc2)[nH]c2ccccc12
i	16	1	-5	-0.9	3.4	0.72	4.7	6%	CCOc1ccccc1C1CC(c2ccc(F)cc2)Nc2nc(N)nn21 (centres undefined)
+	-4	-2	5	-8.8	2.5	/	-2.4	/	N#CCc1nn(-c2ccccc2)c2ncnc(N)c12
/	-9	/	/	/	-3.0	0.72	/	2%	O=C(Nc1ccc2c(c1)OCO2)c1ccc(Cl)nc1
/	-7	/	/	/	1.9	0.67	/	4%	CCC(C)(C)n1nnnc1CN1CCC(O)(c2cccc(C(F)(F)F)c2)CC1
/	87*	/	/	/	1.8	0.69	/	/	Cc1ccc(CN2CCSc3ccc(C(=O)NCC4CCCO4)cc32)cc1 (centres undefined)
i	/	-2	-7	0.6	/	/	-2.4	/	COc1ccc(NC(=O)Nc2ccc3c(c2)C(=O)N([C@@H](C)CO)C[C@H](C)[C@@H](CN(C)C(=O)Nc2ccccc2)OCCCC[C@H](C)O3)cc1
i	-5	9	5	1.6	-0.2	0.72	0.8	-3%	Nc1ncnc(Nc2cccc(F)c2)n1
i	/	-20	-51	7.0	/	/	0.5	/	Cc1ccc(-c2ccc3c(c2)O[C@@H](CN(C)C(=O)CC2CC2)[C@H](C)CN([C@@H](C)CO)S3(=O)=O)cc1
/	31	/	/	/	2.9	/	/	6%	CCCCOc1ccc(/C=c2\sc3ncnn3c2=O)cc1

Of the compounds above, 2 have an aryl thioether with sulfur outside any ring:
FGF22 binding	ALR H2O2 inh	Ecoli rRNA inh	Ecoli rRNA inh OD600	Ecoli rRNA inh RFP	HNF4A DNA FP	E coli growth	MLL AF4-AF9 inh	Vif A3G	molecule
i	-2	-8	-2	-0.6	2.5	0.71	6.2	/	Cc1cccc(-n2c(SCC(=O)N3CC(=O)Nc4ccccc43)nc3ccccc3c2=O)c1C
i	5	-1	6	-1.2	5.4	0.72	8.5	14%	COc1ccc(NC(=O)CSc2nnc(Cc3cccn3C)n2-c2ccc(OC)cc2)cc1

Part of the list above in order of heavy-atom count, descending:
FGF22 binding	ALR H2O2 inh	Ecoli rRNA inh	Ecoli rRNA inh OD600	Ecoli rRNA inh RFP	HNF4A DNA FP	E coli growth	MLL AF4-AF9 inh	Vif A3G	molecule
i	/	1	-6	1.2	/	/	-4.1	/	Cc1ccc(S(=O)(=O)Nc2ccc3c(c2)C(=O)N([C@@H](C)CO)C[C@@H](C)[C@H](CN(C)S(=O)(=O)c2cccs2)OCCCC[C@H](C)O3)cc1
/	-5	/	/	/	3.1	0.7	/	0%	CCc1ccc(-c2csc3ncn(CC(=O)N4CCOCC4)c(=O)c23)cc1
i	0	16	19	4.6	-0.8	0.71	0.5	-6%	O=C(CNC(=O)c1ccc(Br)o1)NCC1CCCO1 (centres undefined)

(next part)
FGF22 binding	ALR H2O2 inh	Ecoli rRNA inh	Ecoli rRNA inh OD600	Ecoli rRNA inh RFP	HNF4A DNA FP	E coli growth	MLL AF4-AF9 inh	Vif A3G	molecule
/	-13	/	/	/	2.9	0.69	/	11%	CC(C)CC(=O)NC(NCC1CCCO1)C(Cl)(Cl)Cl (centres undefined)
/	0	/	/	/	-0.3	0.74	/	-4%	O=C(O)c1cc([N+](=O)[O-])ccc1N1CCCCC1
i	6	-31	-47	-1.1	0.1	0.64	2.5	21%	CC(NC(=O)/C(C#N)=C/c1ccc(OCC(=O)O)cc1)c1ccccc1 (centres undefined)
i	-16	-19	-29	-7.3	-0.6	0.67	-3.9	/	CCOc1ccc2c(c1)C(C)=CC(C)(C)N2S(=O)(=O)c1ccc(NC(C)=O)cc1
/	3	-4	3	10	-9.2	0.68	2.0	/	CC(=O)c1cccc(CN2CCCC(C(=O)Nc3ccc(-c4ccco4)cc3)C2)c1 (centres undefined)
i	-5	-9	-11	-7.7	-2.6	0.76	4.7	/	COc1ccc(C2=CC(=O)CC(c3ccc(F)cc3)C2)cc1 (centres undefined)
/	-39	/	/	/	2.6	0.71	/	5%	COc1ccc(/C=C2\CCc3ccccc3C2=O)cc1Cn1cccn1
i	/	-5	15	-4.8	/	/	0.2	/	N#C[C@H]1[C@H](c2ccccc2C2=CCCCC2)[C@H](CO)N1C(=O)C1CCOCC1
/	/	/	/	/	0.9	0.7	/	2%	COc1ccccc1CC(=O)NCc1ccc2c(c1)OCO2
i	-9	13	17	0.4	-1.1	0.69	-3.9	/	O=C(CNC(=O)c1sc2ccccc2c1Cl)Nc1ccccc1F
/	-23	/	/	/	0.1	/	/	18%	C=CCn1c(-c2ccc(OC)c(OC)c2)cs/c1=N\c1ccccn1
/	1	/	/	/	-5.3	0.7	/	-8%	CCNS(=O)(=O)c1ccc(C(=O)Nc2ccccc2)cc1
i	-5	2	4	3.1	0.1	0.65	-1.4	-8%	O=C(NCCc1ccc(Cl)cc1Cl)c1cncc(Br)c1
i	/	-4	-4	-2.6	2.7	/	1.2	/	CSc1ccccc1CNC(=O)C1(C)CCCN1CC(C)C (centres undefined)
i	-3	/	/	/	-2.8	0.73	1.9	-3%	COC(=O)CN1C(CN2CCOCC2)=Nc2ccc(Br)cc2C1c1ccccc1 (centres undefined)
i	/	-11	-19	8.8	/	/	1.0	/	COc1cccc(-c2ccc([C@H]3[C@H](C#N)N(C(=O)Cc4ccncc4)[C@H]3CO)cc2)c1
/	15	/	/	/	4.5	0.72	/	0%	C=CCc1cccc(CNc2nc3ccccc3n2CCN2CCOCC2)c1O
/	-16	/	/	/	-0.7	0.73	/	-4%	O=C(c1ccccc1)c1c[nH]c(C(=O)NCCCn2ccnc2)c1
i	-9	-14	-6	-2.0	4.4	0.67	10	1%	Cc1ccsc1C(=O)C1CCCN(Cc2cccn2-c2ccc(Cl)cn2)C1 (centres undefined)
i	8	3	1	-9.9	-1.3	0.66	4.5	4%	Cc1cccn2cc(CCNC(=O)c3ccc(Br)o3)nc12
/	3	/	/	/	-0.5	0.75	/	-10%	O=C(Cn1c(SCC(=O)N2CCc3ccccc32)nc2ccccc21)NC1CCCC1
i	0	-39	-50	-8.2	-1.3	0.66	-0.8	/	O=C(NNC(=O)c1ncc(Cl)c(Cl)c1Cl)c1ccc(F)cc1
i	-5	3	2	0.9	-3.0	0.68	-24	/	O=C(NCCc1ccccc1)c1ccccc1[N+](=O)[O-]

Entries of single compounds as entered above. Values in the order: FGF22 binding | ALR H2O2 inh | Ecoli rRNA inh | Ecoli rRNA inh OD600 | Ecoli rRNA inh RFP | HNF4A DNA FP | E coli growth | MLL AF4-AF9 inh | Vif A3G
CCc1ccc(-c2csc3ncn(CC(=O)N4CCOCC4)c(=O)c23)cc1 is listed with / | -5 | / | / | / | 3.1 | 0.7 | / | 0%
CCc1ccc(OCC2NCCc3cc(OC)c(OC)cc32)cc1 (centres undefined) is listed with i | 1 | 6 | -2 | 4.6 | -1.5 | 0.7 | 6.9 | /

Some of the compounds tested; the hit share may differ from the screen's.
